Compound activity as filed in PubChem.
UCH37 DUB inh – inhibitors of human UCH37 deubiquitinase, primary screen, biochemical, Ub-AMC cleavage, fluorescence; inhibition, % (concentration not given with the values); Ubiquitin carboxyl-terminal hydrolase isozyme L5 (Homo sapiens), Q9Y5K5; purified proteasome/UCH37; AID 588478, 2011; hit rate 0.33% among 330,000;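 active = mean of two replicates above 20%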;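 also: 0% = compound-free wells with enzyme and 100% = wells lacking proteasome; stock transfer was 100 nL into about 20 µL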
Target sequence (Q9Y5K5 whole entry, looked up): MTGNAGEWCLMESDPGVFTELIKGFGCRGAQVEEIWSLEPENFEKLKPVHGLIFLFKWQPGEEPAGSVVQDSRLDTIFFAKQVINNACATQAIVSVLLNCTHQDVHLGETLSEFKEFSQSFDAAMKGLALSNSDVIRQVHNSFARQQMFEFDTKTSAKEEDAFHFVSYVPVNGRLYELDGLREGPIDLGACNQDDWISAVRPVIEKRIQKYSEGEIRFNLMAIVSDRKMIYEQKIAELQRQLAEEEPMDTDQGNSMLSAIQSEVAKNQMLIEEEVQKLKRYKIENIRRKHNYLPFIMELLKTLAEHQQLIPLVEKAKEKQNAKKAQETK
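Reagent: Ub-AMC substrate; assay system: Proteasome-associated human UCH37 deubiquitinase; controls: no-proteasome and no-compound wells; read-out: % inhibition of Ub-AMC cleavage fluorescence; timing: 30 min preincubation with enzyme, 25 min cleavage at room temperature; signal: AMC fluorescence from Ub-AMC cleavage, excitation 355 nm, emission 460 nm; buffer or medium: Tris-HCl pH 7.4 plus ovalbumin, ATP-MgCl2, DTT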
LANA-H2B inh – blockers of LANA interaction with H2A/H2B – biochemical, FP readout, HTS, primary screen; Protein LANA1 (Human herpesvirus 8 type P (isolate GK18)), Q9QR71; cell-free LANA-H2A/H2B peptide, fluorescence polarization; inhibition, % (test concentration not listed); hit rate 0.6% among 320,000; in the data active = inhibition mostly above about 10%, no sharp cut-off; inactive = mostly below about 6.7%;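 also: stock transfer was 7.5 nL into about 10 µL; 0% = median of vehicle wells and 100% = median of positive control wells; one replicate is shown; the record names a cut of 25% in any replicate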
Vif TR-FRET – inhibitors of Vif binding to APOBEC3G peptide, primary screen, biochemical, TR-FRET, GST-Vif 1-94, biotin-A3G peptide, dose response retest (AID 1117319). one-dose inhibition, %; IC50 in µM for titrated hits. TR-FRET GST-Vif / biotin-A3G peptide binding; higher % means a stronger effect; test concentration not given here; strong numbers were not always called active. hit rate 0.57% among 260,000. Virion infectivity factor (Human immunodeficiency virus type 1 group M subtype B (isolate …;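 active = above the screen mean plus three standard deviations and confirmed in dose response; inconclusive = results disagree or hit not tested in dose response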;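 also: Vif residues 1-94 fused to GST binding biotinylated APOBEC3G peptide 110-148; 0% = full assay without inhibitor and 100% = GST in place of GST-Vif; retest series ran down from 100 µM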
B2AR ag – beta2AR agonists driving receptor internalization, primary screen, cell-based, FAP fluorogen, flow cytometry; Beta-2 adrenergic receptor (Homo sapiens), P07550; Am2.2-beta2AR cells; reference of the scale not given here; response, % (test concentration not listed); hit rate 0.43% among 340,000; AID 504454, 2011;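 active = response above a set limit, near 3 SD of response in nonfluorescent compounds, cut at about 42% in these data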;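 also: stock transfer was 100 nL into about 11 µL; a reference agonist was the positive control; negative values mostly stem from fluorescent compounds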
HNF4A DNA FP – change in binding of human HNF4A to DNA, primary screen, biochemical, fluorescence polarization, FITC-DNA; Hepatocyte nuclear factor 4-alpha (Homo sapiens), P41235; 1 h; activity change, % at 10 µM; hit rate 0.3% among 360,000; AID 1224865, 2016; in the data active = activity change above about 30%, passing the limit was not always enough;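 also: controls were the assay level and a saturating level of protein; the project sought stronger binding though the title names inhibitors; some compounds called inactive have numbers as strong as hits; positive values seem to mean higher polarization but the record does not say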
Target sequence (P41235 whole entry, looked up): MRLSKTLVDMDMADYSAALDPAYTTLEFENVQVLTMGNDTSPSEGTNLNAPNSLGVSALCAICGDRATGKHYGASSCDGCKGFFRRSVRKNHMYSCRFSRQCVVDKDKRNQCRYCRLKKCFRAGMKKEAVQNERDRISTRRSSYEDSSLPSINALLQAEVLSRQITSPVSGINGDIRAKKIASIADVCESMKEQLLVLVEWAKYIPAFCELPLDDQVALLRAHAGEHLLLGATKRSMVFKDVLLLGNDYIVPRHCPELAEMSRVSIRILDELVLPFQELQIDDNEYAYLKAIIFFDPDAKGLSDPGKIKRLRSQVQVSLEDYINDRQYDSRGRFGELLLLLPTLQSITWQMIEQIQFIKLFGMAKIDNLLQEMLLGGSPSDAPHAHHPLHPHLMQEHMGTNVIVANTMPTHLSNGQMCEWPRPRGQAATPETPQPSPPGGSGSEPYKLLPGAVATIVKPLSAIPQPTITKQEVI
Ecoli growth – E. coli growth inhibition, primary screen, OD600; Escherichia coli growth, 23 h; hits give low values; OD600 absorbance (no concentration beside the values); hit rate 0.21% among 330,000; AID 1053175, 2014;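 active = OD600 absorbance below the run mean of sample wells minus 3.6 SD, in any replicate, cut at about 0.56 in these data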;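 also: stock transfer was 300 nL into about 60 µL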
A1 inh – caspase 3/7 activation in MEF A1-2A-BIM cells, primary screen, A1 inhibitor project, cell-based, luminescence, HTS; Caspase-Glo 3/7 luminescence, 3 h; percent of clofoctol response, vehicle zero; caspase activation, % (test concentration not listed); hit rate 0.066% among 330,000; AID 2462, 2010;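 active = over half of replicate activation scores above 10%, or exactly half above 10 with the replicate mean above 10; inconclusive = replicate mean below 10 yet half the replicates above 10; inactive = over half of replicates below 10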;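 also: wells of about 30 µL received 50 nL stock; many hits fall short of the cut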
The depositor's hits bear a star; ? = inconclusive; nt = not tested or not shown.

no.	canonical_smiles	Vif TR-FRET	Ecoli growth	LANA-H2B inh	A1 inh	B2AR ag	HNF4A DNA FP	UCH37 DUB inh
1	CCN(CC(=O)Nc1c(F)cccc1F)C(=O)c1nc2nc(C)cc(C)n2n1	0%	0.68	nt	nt	-4	-0.1	-1.6
2	O=C(NCCS(=O)(=O)c1ccc(Br)cc1)c1ccc(F)cc1	nt	0.7	-2.3	0.4	-2	3.6	4.9
3	COCCCN1C(=O)C(=O)/C(=C(/O)c2ccc(OCC(C)C)cc2)C1c1cccnc1 (stereo not drawn)	-1%	0.75	10	0.3	-6	0.5	-0.4
4	Cc1ccc(Br)cc1S(=O)(=O)Nc1cccnc1	5%	0.66	5.5	1.2	10	-0.9	1.5
5	Cc1ccc2oc(C(=O)NCC(c3ccco3)N3CCCC3)c(C)c2c1 (stereo not drawn)	nt	0.61	-3.3	-0.5	5	0.1	1.8
6	COc1cc(NC(=S)NCc2cccnc2)cc(OC)c1OC	nt	0.7	0.6	-3.0	7	0.9	0.5
7	Cc1cc(C)n(C2CCCCC2OC(=O)c2ccccc2)n1 (stereo not drawn)	2%	0.77	1.0	0.2	0	-0.7	2.8
8	O=C(/C=C/c1ccc(Br)cc1)NC(=O)c1ccccc1O	-1%	0.64	2.6	0.4	3	-1.6	8.1
9	Cc1ccc2nc(SC(C)C(=O)N3CCCCC3)[nH]c2c1 (stereo not drawn)	3%	0.65	-1.1	0.2	12	0.1	0.8
10	O=C(O)Cc1ccc(Nc2cnn(C34CC5CC(CC(CC(=O)O)(C5)C3)C4)c(=O)c2Cl)cc1	-12%	0.69	3.1	0.7	0	5.5	15
11	CCC(C)(C(=O)NC1CCCC1)N(CC1CCCO1)C(=O)c1ccc2c(c1)OCO2 (stereo not drawn)	3%	0.73	1.6	-0.1	-2	-1.1	0.2
12	CN(C(=O)c1cccc(NC(=O)Cc2ccc(NC(=O)C3CCCN(C(=O)C4CCC4)C3)cc2)c1)C1CCC1 (stereo not drawn)	3%	0.69	nt	nt	-6	-1.5	2.7
13	COc1ccccc1N1CCN(C(=O)Cn2ncc3c([nH]c4ccccc43)c2=O)CC1	nt	0.73	-0.8	0.7	-2	1.5	-2.7
14	N#Cc1ccsc1NC(=O)COc1ccc(-c2nnco2)cc1	10%	0.75	-29	-12	13	6.6	-0.9
15	COc1ccc2c(c1)CC/C(=C\c1ccc(C)o1)C2=O	17%	0.65	1.6	-2.2	-2	13	-0.5
16	COCCNC(=O)CSc1nc2ccccc2c(=O)n1CCC(=O)NCCc1ccc(OC)c(OC)c1	nt	0.72	0.2	0.6	-10	1.9	1.8
17	CCCCCCSc1cc(C)nc2ncnn12	4%	0.78	-0.6	0.1	-5	-3.4	2.2
18	O=C(NC1CCCc2ccccc21)C1CCN(c2nnc(-n3cccc3)s2)CC1 (stereo not drawn)	12%	0.77	-2.7	-0.2	-15	0.0	1.8
19	CSc1ccccc1NC(=O)CN1CC(C)OC(C)C1 (stereo not drawn)	-6%	0.71	1.1	-0.6	-4	-2.9	2.8
20	O=S(=O)(c1ccc(N2CCCC2)nc1)N1CCCC1	13%	0.69	-4.5	-0.5	-11	-5.2	0.2
21	COc1ccc(CCNC(=O)c2noc(C(C)C)c2[N+](=O)[O-])cc1OC	1%	0.69	-1.3	0.0	0	-3.2	1.0
22	Cc1ccc(C(=O)N/C(=C/c2ccc(-c3cccc([N+](=O)[O-])c3)o2)C(=O)NC(C)C)cc1	3%	0.74	0.5	0.1	-12	-1.9	2.7
23	CCc1nnc(NC(=O)C2CC(=O)N(CCc3ccc(F)cc3)C2)s1 (stereo not drawn)	nt	0.67	-3.5	-0.8	5	-3.1	2.4
24	Cc1ccccc1Cn1nnc2c1C(=O)c1ccccc1C2=O	17%	0.64	-2.3	-0.9	-4	-1.0	4.8
25	CC(C)Oc1ccc(C(=O)NC2(C(F)(F)F)NC(=O)N(CCCc3ccccc3)C2=O)cc1 (stereo not drawn)	13%	0.68	-4.2	0.4	9	1.9	0.9
26	Cc1ccc(N2C(=O)C(F)(F)C2c2ccccc2)cc1 (stereo not drawn)	nt	nt	1.0	0.0	19	-2.5	nt
27	CC(C)(C)NC(=O)C1CCC(CNc2c(N3CCCCC3)c(=O)c2=O)CC1 (stereo not drawn)	-6%	0.69	1.1	-0.7	-5	-2.4	1.3
28	CC(=O)n1cc(C2C(=O)CCCC2=O)c2ccccc21	3%	0.7	-4.3	0.9	1	2.6	-0.2
29	Cc1ccc2nsnc2c1S(=O)(=O)NCCc1c(C)[nH]c2ccc(F)cc12	6%	0.75	-4.1	0.2	-2	6.2	4.1
30	O=[N+]([O-])c1ccc(Cl)c(-c2ccc(/C=N/c3c(-c4ccco4)nc4ccccn34)o2)c1	?	nt	-3.7	-0.2	8	-4.2	nt
31	O=C(Nc1ccc(Br)cc1)c1ccc2c(c1)OCO2	nt	0.64	-6.1	-3.9	5	0.4	2.9
32	CN1CCN(C(=S)NC(=O)c2ccc(-c3ccccc3)cc2)CC1	4%	0.66	5.6	-1.2	-1	-3.0	2.0
33	Cc1ccn2cc(CCNS(=O)(=O)c3ccc4c(c3)OCCO4)nc2c1	-2%	0.77	0.4	1.9	-3	2.2	3.1
34	CCC(=O)Nc1c(C(=O)Nc2ccc3c(c2)OCCO3)oc2ccccc12	nt	0.73	-1.6	-0.8	7	0.2	-1.0
35	Cc1cc(C)c(S(=O)(=O)N2CCC(C(=O)OCc3c(C)noc3C)CC2)c(C)c1	-10%	0.68	-5.5	0.7	1	-3.7	2.4
36	COc1cc(OC)c(OC)cc1/C=C1\Oc2cc(OS(C)(=O)=O)ccc2C1=O	18%	nt	0.5	-0.2	-10	73*	nt
37	CCCCNC(=S)Nc1ccc(SC(F)F)cc1	6%	0.59	-2.2	-0.2	-1	4.6	2.9
38	Cc1ccc(/C=N/NC(=O)c2ccc3nc[nH]c3c2)s1	nt	nt	1.4	0.0	-1	-0.1	nt
39	O=C(COc1ccc2ccccc2c1)NCC(=O)N/N=C/c1ccco1	-2%	nt	4.7	-0.2	4	2.1	nt
40	Cc1ccc(S(=O)(=O)Nc2cccc3ncccc23)s1	11%	0.71	-2.0	-0.6	37	-1.9	2.2
41	Cc1cc(Cl)ccc1OCC(=O)N/N=C1\CC2C=CCC12 (stereo not drawn)	-3%	nt	-5.1	-0.3	3	-3.9	nt
42	Cn1ncc(Cl)c1C(=O)Nc1nnc(C2CC2)s1	0%	0.69	0.6	-0.3	6	-1.4	1.7
43	COc1ccc(CCNC(=O)Cn2nnc(-c3ccc(N4CCOCC4)cc3)n2)cc1OC	-6%	0.66	-1.7	-1.6	-2	5.7	-1.7
44	CCCCNC(=O)c1nc2ncc(Br)cn2n1	3%	0.7	-2.8	0.3	-1	3.1	-0.5
45	CCn1nnc(-c2ccccc2NC(=O)c2cc(OC)c(OC)c(OC)c2)n1	7%	0.72	-0.2	-0.3	7	0.2	-2.9
46	C=C1c2ccccc2NC(=O)N1c1ccc(OC)cc1	nt	0.7	-0.7	-1.4	-8	1.6	-6.8
47	O=C(NNS(=O)(=O)c1ccc(CCCl)cc1)C(O)(c1ccccc1)c1ccccc1	nt	0.69	3.3	1.7	-7	-0.2	0.5
48	CCCCCCC1CC(CSC(=N)N)OC1=O (stereo not drawn)	2%	0.76	-2.1	0.9	3	2.2	5.0
49	COc1ccc(N2CCN(C(=O)CCNS(=O)(=O)c3cc(Br)cnc3N)CC2)cc1	24%	0.72	3.6	0.1	-7	1.6	-0.7
50	Cc1[nH]c2ccccc2c1/C=N/NC(=O)CNC(=O)Cc1ccccc1	nt	nt	-1.4	0.2	5	0.5	nt
51	COC(=O)C1=C(C(=O)c2ccccc2)C(c2cccs2)n2nnnc2N1 (stereo not drawn)	6%	0.69	1.0	?	-1	-0.8	5.5
52	COc1ccc(S(=O)(=O)N2CCOCC2)cc1NC(=O)COC(=O)c1oc2ccccc2c1C	-3%	0.68	-2.4	-1.3	1	2.7	-0.6
53	O=C(O)CN1CCCCC1	nt	0.71	1.6	1.2	-3	-0.2	-0.7
54	Cc1cccc(-c2nnc(-c3cccc(NC(=O)Cc4cccs4)c3)o2)c1	1%	0.7	-2.1	-1.1	1	0.4	1.7
55	COC(=O)COc1ccc(C(C2C(=O)CC(C)(C)CC2=O)C2C(=O)CC(C)(C)CC2=O)cc1	2%	0.68	2.2	1.0	11	2.3	1.3
56	Cc1ccc(-c2n[nH]c(=S)n2/N=C/c2ccc(C)o2)cc1	nt	nt	3.5	0.9	-7	-0.3	nt
57	Oc1ccc(Br)cc1CNc1cnc2ccccc2c1	6%	0.57	-2.1	0.4	4	-3.5	-20
58	COc1ccc(C(=O)OCC(=O)N2C(C)CCCC2C)cc1S(=O)(=O)N1CCOCC1 (stereo not drawn)	-4%	0.66	2.7	1.8	0	1.4	-0.2
59	Cc1[nH]c2ccc(C(=O)OCC(=O)NC3(C#N)CCCCC3)cc2c1C	-2%	0.68	0.5	-0.8	4	3.1	-1.6
60	CSCCC(NC(=O)COc1cccc2ccccc12)C(=O)O (stereo not drawn)	14%	0.66	1.3	-0.7	2	-2.6	0.2

Further compounds:
no.	canonical_smiles	Vif TR-FRET	Ecoli growth	LANA-H2B inh	A1 inh	B2AR ag	HNF4A DNA FP	UCH37 DUB inh
61	O=C(C1CCC(C(=O)N2CCc3ccccc32)CC1)N1CCc2ccccc21 (stereo not drawn)	-3%	0.7	3.3	1.6	0	2.6	2.2
62	NCc1ccc2[nH]c(=O)[nH]c2c1	0%	0.7	3.4	0.0	-2	-2.9	0.3
63	Cc1noc(NS(=O)(=O)c2ccc(NC(=O)COc3ccc(C#N)cc3)cc2)c1C	0%	0.68	1.1	-0.2	0	-2.1	0.9
64	Cc1cccn2c(=O)c(/C=C(\C#N)C(N)=O)c(Oc3ccccc3)nc12	4%	0.69	0.7	-2.6	4	0.0	-31
65	CC(C)NC(=O)COc1coc(CN2CCN(c3ccccc3)CC2)cc1=O	nt	0.7	2.6	1.5	4	1.9	-1.1
66	O=C(NCc1ccco1)c1cccc(S(=O)(=O)N2CCCCC2)c1	31%	0.69	-3.7	-0.3	-6	3.9	3.9
67	CCOc1ccc(CN2CCN(C(=O)c3ccccc3)CC2)cc1	14%	0.72	-0.5	-0.7	3	-0.7	2.2
68	CC1CCN(c2nc(-c3cccnc3)nc3scc(-c4ccccc4)c23)CC1	nt	0.72	-3.0	0.6	-11	2.6	1.5
69	CC(=O)C1=C(C)NC(SCC(N)=O)=C(C#N)C1c1sccc1C (stereo not drawn)	3%	0.7	-5.3	0.9	0	-0.4	-3.2
70	CCOc1cc(/C=C2\NC(=S)N(c3c(C)n(C)n(-c4ccccc4)c3=O)C2=O)ccc1O	15%	0.68	-8.2	-0.1	5	25	13
71	O=C(CSc1nc(-c2ccco2)cc(C(F)(F)F)n1)NCCc1ccccc1	-3%	0.72	0.2	1.2	-12	3.7	1.8
72	COc1ccc(S(=O)(=O)Nc2c(O)c3ccccc3oc2=O)cc1	nt	0.64	4.0	0.7	1	-3.0	1.2
